# Sa ugtP lethal: growth inhibition of S. aureus ugtP deletion strain; S. aureus RN4220 ugtP deletion, OD600 growth, 16 h; some inactives read as strong as hits; growth inhibition, % (no concentration beside the values); 330,000 tested, 0.54% active; AID 1259309;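 active = z-score under -3 and OD600 up to 0.15 on both plates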;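 note: plate controls were untreated wells for no effect and antibiotic for full effect; wells of about 80 µL received 100 nL stock; the first replicate is given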
# Mtb hypoxia rep: reduces hypoxia-regulated biosensor signal in M. tuberculosis. M. tuberculosis hypoxia-regulated fluorescent reporter, fluorescence. 300,000 tested, 0.1% active. AID 1159583. fluorescence inhibition, % (test concentration not listed);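 active = 35 to 45% if threefold the growth effect, above 45% if 1.5-fold the growth effect; inactive = the rest, general growth blockers included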;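 note: wells of about 50 µL received 100 nL stock; 0% = vehicle wells and 100% = reference inhibitor wells; whole bacteria with a GFP reporter of the hypoxia response; strong numbers were not always called active; many hits fall short of the cut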
# BJeLR lethal: kills HRASV12-expressing BJeLR cells | inhibition, % (concentration not given with the values) | AID 1554 | 300,000 tested, 0.17% active | BJeLR (HRASV12) viability, CellTiter-Glo ATP luminescence, 48 h; reference of the scale not given here;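 active = replicate mean above 50%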;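 note: 50 nL library stock added to about 25 µL; numbers are from one replicate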
# Sa RN4220 lethal: kills Staphylococcus aureus RN4220 | S. aureus RN4220 growth, OD600, 16 h | 330,000 tested, 0.33% active | AID 1259311 | inhibition, % (no concentration beside the values);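 active = z-score of -3 or lower and OD600 up to 0.18 on both plates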;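 note: plate controls were untreated cells for no effect and reference antibiotic for full effect; stock transfer was 100 nL into about 80 µL; one replicate is shown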
# Bead autofluor: compound fluorescence in toxin protease inhibitor counterscreen. compound autofluorescence counterscreen, microsphere flow cytometry; active compounds read high. 360,000 tested, 3.1% active. fluorescence intensity (test concentration not listed);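 active = at least 3 SD above the mean of all compounds, about 16000 in these data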;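 note: 100 nL of 1 mM stock went into each well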
# PrP UTR inh: suppresses PrP 5' UTR mRNA reporter expression | cell-based PrP 5' UTR mRNA reporter, plate reader | inhibition, % (no concentration beside the values) | 340,000 tested, 0.35% active;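 active = every replicate at 50% or more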;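 note: 0 = median of the neutral control wells; tested in H4 reporter cells; numbers are from one replicate; inactives centre near -14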
# Mtb hypoxia rep growth: further read-out of Mtb hypoxia rep, marked with its call; growth inhibition, %; measured here: M. tuberculosis growth (absorbance);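 0% = vehicle and 100% = reference antibiotic; read after six days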
# Active calls of the source: *; nt = not tested or not shown; & = joins results of further samples.
SMILES,Sa ugtP lethal,Mtb hypoxia rep,Mtb hypoxia rep growth,BJeLR lethal,Sa RN4220 lethal,Bead autofluor,PrP UTR inh
O=C(CSc1nc2ccccc2[nH]1)Nc1ccc2[nH]c(=O)[nH]c2c1,4,6,6,nt,5.0,3406,-14
COc1ccc(NC(=O)/C(C#N)=C/c2c(C)nn(-c3ccc(F)cc3)c2Cl)cc1OC,-4,-1,6,5,-0.5,2305,-30
Cc1cc(NC(=O)C2CCCC2)nc2c1c(=O)oc1ccccc12,-2,nt,nt,-2,-7.2,3072,-30
CSCCC(NS(=O)(=O)c1cccc(C(F)(F)F)c1)C(=O)Nc1ccccc1N1CCCC1 (stereo not drawn),-8,7,-3,11,7.3,6741,-19
O=C(Nc1ccccc1)Oc1cccc(Br)c1,-2,-3,-3,2,-3.7,4639,-32
CCn1c(C(=O)NCc2ccccn2)cc2sccc21,7,0,-4,1,3.7,17121*,-28
COc1ccc(-c2nnn(CC(=O)N(CCO)C(C(=O)NC3CCCC3)c3ccncc3)n2)cc1 (stereo not drawn),-3,7,-1,-4,4.5,3575,-16
CC(CC(=O)Nc1c(C)cc(C)cc1C)=NNC(=O)c1cnccn1,6,4,3,nt,4.1,nt,nt
COC(=O)c1oc(-c2ccccc2)nc1C,2,4,-1,2,2.3,3334,-12
CCc1ccc(NC(=S)N(CCN2CCCCC2)Cc2ccco2)cc1,2,12,6,-1,3.2,8786,-9
COc1cccc(NC(=O)c2ccccc2N2C(=O)C3C4C=CC(C5CC45)C3C2=O)c1 (stereo not drawn),13,4,-6,1,5.7,4247,3
Cc1cc(C)c(S(=O)(=O)N2CCCC2)c(C)c1,0,3,18,-4,4.0,3472,-7
O=C(O)/C=C/C(=O)N1CCN(c2cccc(Cl)c2)CC1,14,7,10,nt,-2.4,3252,-10
O=C(CN1CCN(CN2C(=O)NC3(CCCCCC3)C2=O)CC1)Nc1ccc(F)cc1,-3,-5,10,nt,-0.6,8542,-3
CC(C)c1ccc(NC(=O)COC(=O)C2=COCCO2)cc1,-6,1,3,1,0.5,3260,3
CNC(=O)O/N=C(\C)Cc1nnn(-c2cc(C)on2)n1,nt,nt,nt,-11,nt,4098,-6
O=C(c1ccccc1)[C@@H]1[C@@H](C(=O)c2ccc(F)cc2)[C@@]2(C(=O)Nc3ccccc32)[C@H]2c3ccccc3C=CN12,nt,nt,nt,0,nt,7809,-18
COC(=O)C1=C(C)N(Cc2ccco2)C(=O)NC1c1ccc(Br)cc1 (stereo not drawn),10,5,-8,nt,4.8,nt,nt
CCOC(=O)c1cccc(NC(=O)CCS(=O)(=O)c2ccc(Br)s2)c1,3,5,4,7,1.7,8827,-4
CCOC(=O)c1c(N=CN(C)C)c(C#N)c2n1CCCC2,-3,1,-1,-1,0.7,4006,-27
Cc1ccc(-c2ccc(C=NO)o2)cc1[N+](=O)[O-],-3,5,-4,nt,0.5,nt,nt
CC(C(=O)O)c1n[nH]c(=O)c2ccccc12 (stereo not drawn),16,11,3,-2,6.2,8160,7
CC1CCN(S(=O)(=O)c2ccc(C(=O)Nc3nnc(-c4ccccn4)o3)cc2)CC1,3,5,3,-4,11,2461,-19
COC(=O)[C@H](CO)NS(=O)(=O)c1ccc(C)cc1,2,2,3,nt,3.6,3509,-11
Cc1ccc(NC(=O)CN(C)C(=O)COC(=O)c2nccnc2N)cc1,6,6,-6,nt,3.2,7760,-24
C#CCNC(=O)C1=CC(c2ccc(Br)cc2)C(CCCO)C(OCC)O1 (stereo not drawn),2&1,3&14,9&12,nt,3.3&6.1,nt,nt
COc1ccc2c(c1)C1=C(CC2)C(c2ccc(C)cc2)NC(=S)N1 (stereo not drawn),-14,1,1,-10,-2.7,3301,21
COc1cc(C2C(C#N)=C(N)N(c3cccnc3)C3=C2C(=O)CCC3)ccc1O (stereo not drawn),-3,-5,22,0,-1.3,4187,-14
COc1cc(NC(=O)CSc2nccc(=O)[nH]2)c(C)cc1[N+](=O)[O-],3,12,11,8,5.9,4827,-29
O=C1C=C(c2ccc(F)cc2OCc2ccccc2)CC(c2ccc3c(c2)OCO3)C1 (stereo not drawn),11,16,10,nt,0.8,nt,nt
COC(CNC(=O)c1ccc2c(=O)n(Cc3ccc(Cl)cc3)c(=S)[nH]c2c1)OC,-2,-5,-3,6,0.1,3832,-17
Cc1nn(CCCC(=O)NC(C)c2ccccc2)c(=O)c2nn(-c3ccccc3)c(C)c12 (stereo not drawn),3,8,2,-18,0.0,4582,-4
O=C(O)/C=C/C(=O)Nc1ccc2nccnc2c1,4,5,-4,nt,6.5,3540,-25
O=C(c1ccc([N+](=O)[O-])cc1)N(Cc1ccc(Cl)cc1)N1C(=O)CCCC1=O,5,3,6,1,5.1,17414*,2
COc1ccc(CN(C(=S)Nc2ccccc2)C2CC(=O)N(c3ccc(F)cc3)C2=O)cc1 (stereo not drawn),-17,nt,nt,-1,10,2831,-6
COc1ccc(NC(=O)c2ccc(Cl)nc2)cc1S(=O)(=O)N1CCCCC1,7,-13,14,13,3.4,1943,0
COc1ccc2c(c1)C(NC(C)=O)C(=O)N2C (stereo not drawn),3,18,13,0,-10,2894,-18
O=C(Nc1ccccc1)Nc1nc(-c2ccc(F)c(F)c2)cs1,-7,14,3,4,-9.9,3882,-22
Cc1ccc(OCC(=O)N/N=C/c2ccco2)cc1,nt,nt,nt,-8,nt,12249,-18
COC(=O)c1cc(S(=O)(=O)N(C)c2ccc(C)c(C)c2)c[nH]1,-5,-5,0,3,5.4,5187,-20
CN(C)/C=C(\C#N)C(=O)N/N=C(\CC(=O)C(F)(F)F)c1ccco1,nt,nt,nt,1,nt,4244,-24
Cc1ccc(NS(=O)(=O)c2cc(NC(=O)c3ccc4c(c3)NC(=O)CS4)ccc2Cl)c(C)c1,-17,-6,-1,-4,-12,2497,-3
Cc1ccc(S(=O)(=O)c2c(C)nn(-c3ccccc3)c2OC(=O)c2ccco2)cc1,5,5,9,-11,7.3,2505,-39
CC(=O)c1ccc(S(=O)(=O)N2CCN(C(=O)c3ccc(-n4nc(C)c(Cl)c4C)cc3)CC2)cc1,7,1,0,nt,7.1,3030,-2
CCOc1ccc(NC(=O)c2cccc3c2C(=O)N(Cc2cccnc2)C3)cc1,-4,4,8,-6,-6.2,3848,-25

# Whole records, looked up by structure:
# CC(=O)c1ccc(S(=O)(=O)N2CCN(C(=O)c3ccc(-n4nc(C)c(Cl)c4C)cc3)CC2)cc1 reads Sa ugtP lethal = 7; Mtb hypoxia rep = 1; Mtb hypoxia rep growth = 0; BJeLR lethal = nt; Sa RN4220 lethal = 7.1; Bead autofluor = 3030; PrP UTR inh = -2
# Cc1nn(CCCC(=O)NC(C)c2ccccc2)c(=O)c2nn(-c3ccccc3)c(C)c12 (stereo not drawn) reads Sa ugtP lethal = 3; Mtb hypoxia rep = 8; Mtb hypoxia rep growth = 2; BJeLR lethal = -18; Sa RN4220 lethal = 0.0; Bead autofluor = 4582; PrP UTR inh = -4
# Cc1ccc(NS(=O)(=O)c2cc(NC(=O)c3ccc4c(c3)NC(=O)CS4)ccc2Cl)c(C)c1 reads Sa ugtP lethal = -17; Mtb hypoxia rep = -6; Mtb hypoxia rep growth = -1; BJeLR lethal = -4; Sa RN4220 lethal = -12; Bead autofluor = 2497; PrP UTR inh = -3

# Going on with the list.
SMILES,Sa ugtP lethal,Mtb hypoxia rep,Mtb hypoxia rep growth,BJeLR lethal,Sa RN4220 lethal,Bead autofluor,PrP UTR inh
CC(C(=O)Nc1ccc2ccccc2c1)C1C[C@@]1(C)C(NC(=O)c1cnccn1)c1ccccc1 (stereo partly drawn),7,-2,1,nt,0.9,nt,nt
C/C(=N\NC(=S)NC1CCCCC1)c1cccc(C(F)(F)F)c1,nt,nt,nt,2,nt,3534,-23
Cc1nn(-c2ccccc2)c2sc(C(=O)NNC(=O)COc3cccc4ccccc34)cc12,1,-2,2,-7,21,6157,-13
COc1ccc(CN(C)C(=O)CCN2C(=O)c3ccccc3C2=O)c(OC)c1OC,5,3,9,-4,4.4,3480,-16
CC(C)Cc1nc(SCC(=O)N2CCCCC2)c2c(=O)n(C)c(=O)n(C)c2n1,1,7,13,2,-0.9,5785,-3
O=C(CSc1ccccn1)C12CC3CC(CC(C3)C1)C2,-6,16,18,-2,6.5,5367,-17
NS(=O)(=O)c1ccc(CCNC(=O)CNS(=O)(=O)c2cccc(Br)c2)cc1,0,12,-2,2,18,3964,-34
O=C(NCC(=O)N1CCN(c2ccccn2)CC1)c1ccc(Br)o1,2,13,9,0,5.1,5460,-8
COc1ccc(C2C(C#N)=C(SCC(=O)Nc3ccc(C)cc3)NC3=C2C(=O)CC(C)(C)C3)cc1 (stereo not drawn),10,-6,0,5,0.8,3161,4
O=c1[nH]n(Cc2ccccc2)c2ccccc12,0,6,-1,6,2.5,3264,-1
CCn1c(SCC(=O)Nc2cc(C)on2)nc2c([nH]c3ccccc32)c1=O,-2,4,10,-4,1.0,5710,-18
CC(/C=C/c1ccco1)=NNC(=O)CNc1cccc(C)c1,5,12,7,nt,6.0,nt,nt
CCN(CC(=O)Nc1ccc(NC(C)=O)cc1)Cc1c(O)ccc2cc(Br)ccc12,-4,5,-1,-8,2.2,4278,-22
COc1cccc(CNC(=O)N2CCN(c3ccccc3C)CC2)c1,0,-7,-1,8,-1.0,2735,0
COc1cccc(CN2CC=C(c3ccc(F)cc3)CC2)c1,3,17,11,7,4.7,3615,-62

# Shown as labelled records: part of the list above.
compound: Cc1ccc(-c2ccc(C=NO)o2)cc1[N+](=O)[O-]
  Sa ugtP lethal: -3; Mtb hypoxia rep: 5; Mtb hypoxia rep growth: -4; BJeLR lethal: nt; Sa RN4220 lethal: 0.5; Bead autofluor: nt; PrP UTR inh: nt
compound: CC(C(=O)O)c1n[nH]c(=O)c2ccccc12 (stereo not drawn)
  Sa ugtP lethal: 16; Mtb hypoxia rep: 11; Mtb hypoxia rep growth: 3; BJeLR lethal: -2; Sa RN4220 lethal: 6.2; Bead autofluor: 8160; PrP UTR inh: 7
compound: CC1CCN(S(=O)(=O)c2ccc(C(=O)Nc3nnc(-c4ccccn4)o3)cc2)CC1
  Sa ugtP lethal: 3; Mtb hypoxia rep: 5; Mtb hypoxia rep growth: 3; BJeLR lethal: -4; Sa RN4220 lethal: 11; Bead autofluor: 2461; PrP UTR inh: -19
compound: COC(=O)[C@H](CO)NS(=O)(=O)c1ccc(C)cc1
  Sa ugtP lethal: 2; Mtb hypoxia rep: 2; Mtb hypoxia rep growth: 3; BJeLR lethal: nt; Sa RN4220 lethal: 3.6; Bead autofluor: 3509; PrP UTR inh: -11

# Later entries:
SMILES,Sa ugtP lethal,Mtb hypoxia rep,Mtb hypoxia rep growth,BJeLR lethal,Sa RN4220 lethal,Bead autofluor,PrP UTR inh
CC1CN(C(=O)COC(=O)c2cc(Cl)ccc2Cl)CC(C)O1 (stereo not drawn),10,7,13,0,4.2,3220,2
COc1ccc(-c2cc(=O)c3ccccc3o2)cc1,11,nt,nt,7,13,4822,-87
COc1ccc2cc(C(=O)NCCCN3CCCC3=O)[nH]c2c1,7,14,0,-3,2.1,4340,-27
COc1ccc(CN(C(=O)CSc2nnc(-c3c[nH]c4ccccc34)o2)c2ccc(F)cc2)cc1OC,-2,nt,nt,13,0.4,4750,-14
O=C(COc1ccc2c(c1)oc(=O)c1ccccc12)NCCCN1CCOCC1,-2,-6,-1,13,-2.5,5683,-5
COc1cccc2cc(-c3nc4ccccc4o3)c(=O)oc12,-14,3,15,4,5.3,3597,-34
CC(=O)OCC(=O)[C@@]1(OC(C)=O)C(C)CC2C3CC(F)C4=CC(=O)C=C[C@]4(C)[C@@]3(F)C(O)C[C@@]21C (stereo partly drawn),-5,0,2,nt,1.2,nt,nt
O=C(c1cc2cc3ccc(Cl)cc3nc2o1)N1CCC2(CC1)OCCO2,3,nt,nt,5,2.4,5146,-65
CN(C1CCCCC1)S(=O)(=O)c1ccc(NC(=O)CCC(=O)O)cc1,-13,nt,nt,-9,3.4,4386,-14
CCCCCC(=O)Nc1ccc(Cl)cn1,2,10,6,-2,2.9,12219,-44
CN(C)S(=O)(=O)c1ccc(NC(=O)COC(=O)Cn2[nH]c(=O)c3ccccc3c2=O)cc1,2,12,-1,-6,4.7,5315,-8
CCOc1cc(NC(=S)NCCCN2CCOCC2)c(OCC)cc1NC(=O)c1ccc(OC)cc1,2,-3,9,1,4.9,4105,-11
O=C(c1c(F)cccc1F)N(Cc1ccccn1)C1CCCC1,-1,3,5,1,-0.4,7992,-12

# Bioassay records (PubChem BioAssay)
